2A firefly = FMDV 2A StopGo reporter, firefly signal. 0.23% of 120,000 active. HEK cells with a luciferase reporter of 2A StopGo recoding. Potency, µM (doses to about 57.5 µM), inactives show at the highest dose signal change, negative = less light. AID 1745856; active = well fitted falling curve with a large enough effect; inconclusive = small, poorly fitted or top-dose-only effect; inactive = no such curve, though single readings can be large or run the other way; note: nearly all actives have a fitted effect of over 60% in size; overnight with compound
2A Renilla = FMDV 2A StopGo reporter, Renilla signal. Potency, µM (titrated, usually from 57.5 µM), inactives show top-dose signal change, negative = less light. HEK cells with a luciferase reporter of 2A StopGo recoding. 0.32% of 120,000 active. AID 1745857; active means well fitted falling curve with a large enough effect; inconclusive means small, poorly fitted or top-dose-only effect; inactive means no such curve, though single readings can be large or run the other way; note: nearly all actives have a fitted effect of over 55% in size; overnight with compound
* = called active by the depositor; ? = inconclusive; & = joins results of further samples; [ ] = dose if it differs, or a comment. % is set by controls: 0 for no effect and ±100 for the full control effect; potency is the fitted concentration of half-maximal effect. Random draw from the library; 0.53% or so of the library scored in one or more.

SMILES | 2A firefly | 2A Renilla
CC1CCN(C(=O)c2c(NC(=O)c3ccccc3F)sc3c2CCC(C(C)(C)C)C3)CC1 (stereo not given) | 3.0% | -0.8%
COc1ccc2cc(C(=O)NCc3ccc4c(c3)CCN4C(=O)c3ccc(C)cc3)[nH]c2c1 | -7.9% | -9.3%
Cc1ccc(C(=O)Nc2nnc(S(=O)(=O)N3c4ccccc4CC3C)s2)cc1 (stereo not given) | 47.2%[activator] | 2.9%
Cc1nnc(NC(=O)c2ccc3c(ccn3Cc3ccccc3)c2)s1 | 38.3%[activator] | -3.3%
CCOc1ccccc1Nc1nc(-c2cc3cc(Cl)ccc3oc2=O)cs1 | -3.8% | -5.7%
COc1cc(C(=O)OC(C)C(=O)Nc2c(C)n(C)n(-c3ccccc3)c2=O)cc(Cl)c1OC (stereo not given) | 20.5% | -10.0%
CCc1c(C)nc(-n2nc(C)cc2NC(=O)c2ccccc2)[nH]c1=O | 73.7%[activator] | 2.1%
CC(=O)Nc1nnc(SCc2cc(=O)c3cc(C)ccc3[nH]2)s1 | -9.5% | -10.9%
O=C(CCNC(=O)N1CCN(C(=O)c2cc3ccccc3[nH]2)CC1)NC1CC1 | 10.4% | 2.1%
CC(=O)[C@H]1CC[C@H]2[C@@H]3CC[C@H]4CC(=O)CC[C@]4(C)[C@H]3C(=O)C[C@]12C | 2.8% | 0.0%
COc1cc2ncnc(N3CCN(C(C)=O)CC3)c2cc1OC | -2.3% | -1.3%
CCNC(=O)C(C)NC(=O)c1cc2ccc(OC)cc2nc1C (stereo not given) | 22.8% | 0.0%
C/C(=N/Nc1ccc([N+](=O)[O-])cc1[N+](=O)[O-])C1CCCCC1 | 3.8% | -13.9%
CC(NC(=O)Cc1ccc(-c2ccccc2)cc1)C12CC3CC(CC(C3)C1)C2 (stereo not given) | 1.2% | 8.3%
CCc1cccc(NC(=O)C(CC)n2nc(C)c3sc4ccccc4c3c2=O)c1 (stereo not given) | -26.5% | 31.2%[activator]
Cc1cc(C)c2c(CN3CCN(c4ccc(F)cc4)CC3)cc(=O)oc2c1 | -8.3% | -14.4%
Cc1ccccc1-c1nc(CNS(=O)(=O)c2ccc(Cl)cc2)c(C)o1 | -4.2% | 66.8%[activator]
COC(=O)c1cn(C(=O)c2ccc(C)cc2)c2ccccc12 | 5.0% | 2.4%
CCc1ccc(/C=C(/CC(=O)O)c2nc3ccccc3s2)cc1 | 60.8%[activator] | -6.4%[1.06 µM]
CCOC(=O)C1=C(O)C(=O)N(c2ccccc2)C1c1ccc(F)cc1 (stereo not given) | 272.8%[activator] | 193.9%[activator]
COc1cccc(OC)c1C(=O)NCCc1csc(-c2ccc(Cl)cc2)n1 | ? | ?
Cc1ccc(S(=O)(=O)N2CCN(C(=O)c3cc(-c4ccc(Br)cc4)n[nH]3)CC2)c(C)c1 | -12.5% | -11.8%
Cc1nc2sc(C(=O)NCc3ccc(Cl)cc3)c(NC(=O)c3ccccc3)c2c(C)c1C | -10.5% | 1.4%
O=C(Nc1cnc2ccccc2c1)c1cc(Cl)ccc1Cl | 0.0% | -0.1%
COc1ccc(N(CC(=O)NCc2ccccc2Cl)S(=O)(=O)c2c(C)[nH]c(=O)[nH]c2=O)cc1 | -15.1% | -8.5%

(list continues)
SMILES | 2A firefly | 2A Renilla
Nc1nc(Nc2cccc(Cl)c2)sc1C(=O)c1cccc(Br)c1 | 0.0% | 60.0%[activator]
COc1ccc(NC(=O)C2=CC(c3ccc4c(c3)OCO4)=NS(=O)(=O)N2C)cc1OC | 4.3% | 294.3%[activator]
CCCCc1cc(=O)oc2c(C)c3c(cc12)C(=O)CC(C)(C)O3 | 9.1% | -10.7%
CCCC(C(=O)Nc1nc2ccc(F)cc2s1)c1ccccc1 (stereo not given) | 8.7% | -14.1%
CNc1nc(Nc2ccccc2C)c2cnn(-c3ccccc3)c2n1 | 11.4% | -9.3%
Oc1ccc(-c2nc(-c3ccc4c(c3)OCCCO4)cs2)cc1 | 223.0%[activator] | -13.3%[1.06 µM]
Cc1[nH]nc2c1C(c1cccc(OCC(C)C)c1)SCC(=O)N2 (stereo not given) | 0.7% | -13.0%
O=C1Cc2cc(CCN3CCN(c4nsc5ccccc45)CC3)c(Cl)cc2N1 | -5.6%[11.5 µM] | -5.3%
O=C(NNC(=S)NC(=O)c1ccc(F)cc1)c1ccc(Cl)cc1 | 60.5%[activator] | 4.3%
COc1ccc(Nc2nc(N3CCN(c4ccc(F)cc4)CC3)nc3c2cnn3C)cc1 | 11.8% | 20.2%
Cc1cccc(N2CCN(c3ccc4cc(S(=O)(=O)N5CCC(C)CC5)ccc4n3)CC2)c1C | 11.5% | 11.4%
CCOc1ccc(S(=O)(=O)N(CC(=O)NCc2ccccc2OC)c2ccccc2)cc1 | -17.0% | 15.4%
O=C(c1ccc(F)c(F)c1)N1CCN(Cc2nnnn2C2CC2)CC1 | 5.5% | -2.1%
Cc1cn[nH]c1C#N | 1.6% | -4.0%
CCCCCC(=O)Nc1ccc2oc(-c3ccncc3)nc2c1 | 42.7%[activator] | -0.2%
COCCCNC(=O)CSc1nc2cc3c(cc2c(=O)n1CCCCCC(=O)NCc1ccc(OC)cc1)OCO3 | -12.0% | -10.8%
COc1ccc2oc(=O)c(-c3nc(-c4cccs4)no3)cc2c1 | -6.8% | -5.9%
COC(=O)C(C)N1C(=O)S/C(=C/c2ccc(C)cc2)C1=O (stereo not given) | 97.4%[activator] | 1.0%
Cc1ccc(C)c(NC(=O)c2cnn(-c3ccc(F)cc3F)c2C2CCNCC2)c1 | -17.8% | -22.3%
CCn1cc(S(=O)(=O)Nc2ccn(Cc3ccccc3Cl)n2)c(C)n1 | -1.3% | 35.5%[activator]
COc1ccc(C(=O)N2CCc3cc(OC)c(OC)cc3C2COc2ccccc2OC)cc1 (stereo not given) | -19.5% | 34.7%[activator]
Cc1ccc(-n2c(SCC(=O)Nc3ccccc3F)nc3c(=O)[nH]cnc32)cc1 | 45.9%[activator] | 46.6%[activator]
Cc1cccc(-n2c3nc(=O)[nH]c(=O)c-3cc3c(Cl)cccc32)c1C | -15.6% | -21.1%
N#C/C(=C\c1ccc(-c2ccc(C(=O)O)cc2)o1)C(=O)Nc1ccccc1C(=O)O | 5.6% | 19.4%
COc1ccc(CNC(=O)c2cc(-c3ccc(Br)s3)nc3ccccc23)cc1 | -18.3% | -2.3%

(listing goes on)
SMILES | 2A firefly | 2A Renilla
CCc1cc(=O)oc2cc(OC(C)C(=O)O)c(Cl)cc12 (stereo not given) | 15.1% | 7.7%
CC(C)c1ccc(NC(=O)CN(C)S(=O)(=O)c2ccc3c(c2)n(C)c(=O)c(=O)n3C)cc1 | -15.9% | -10.9%
CN(CC(=O)O)S(N)(=O)=O | 5.2% | 1.6%
CSc1nc(N2CCCC2)c2c3c(sc2n1)COC(C)(C)C3 | 7.7% | 3.9%
CN1C(C(=O)Nc2ccccn2)=C(O)c2ccccc2S1(=O)=O | -10.9%[11.5 µM] | -4.9%
COc1ccccc1-c1c(C)nn2c(C(F)(F)F)cc(-c3ccccc3)nc12 | 1.9% | 7.7%
CN(C)c1ccc(CNC(=O)c2cnc3sc(N4CCOCC4)nn3c2=O)cc1 | -7.3% | -4.9%
O=C(NCc1ccc2c(c1)OCO2)c1ccc2c(c1)N(Cc1cccc(Cl)c1)C(=O)c1ccccc1S2=O (stereo not given) | -22.2% | 1.8%
CC1CCCCN1c1nc2nnnn2c2sc3c(c12)CCN(Cc1ccccc1)C3 (stereo not given) | 4.1% | 3.9%
Cc1ccc(C)c(CN2C(=O)c3ccccc3Sc3ccc(C(=O)NC4CCCC4)cc32)c1 | 11.1% | 14.8%
CCCC(NCc1ccco1)c1ccccc1 (stereo not given) | 20.7% | -5.5%
O=C(NCc1ccccc1)C(=O)N1CCN(C(=O)c2cc3ccccc3[nH]2)CC1 | -11.0% | -9.9%
CCCCCN(Cc1ccc(F)cc1)C(=O)Nc1ccc(N(C)C)nc1 | 42.0%[activator] | -9.3%
CCc1ccc(CNC(=O)c2ccc(CS(=O)c3ccc(Br)cc3)o2)cc1 (stereo not given) | 0.0% | 0.0%
Fc1ccc(-c2cc3ncc4c(n3n2)-c2cc(Cl)ccc2OC4)cc1 | -8.9% | -2.9%
Cn1c(-c2ccccc2)ccc1-c1ccccc1 | 42.0%[activator] | 1.1%
CCOC(=O)CSc1nc2ccc(NC(=O)COc3ccccc3C)cc2s1 | 8.7% | 9.0%
O=C(c1cn(Cc2ccccc2F)c2ccccc12)C1CCCCC1 | 12.5% | 0.0%
Cc1ccc2nc(NC(=O)c3cc(=O)c4cc(C)c(C)cc4o3)sc2c1 | -14.3% | -5.2%
CCc1ccc(C(=O)c2cn(CC(=O)Nc3ccc(F)c(F)c3)c3cc(OC)c(OC)cc3c2=O)cc1 | -10.3% | -6.2%
COC(=O)c1cc(S(=O)(=O)N(C)CC(=O)Nc2ccccc2F)cn1C | 14.2% | 3.4%
CC1=C(C#N)C(NC(=O)c2ccccc2)(C(F)(F)F)C(=O)N1 (stereo not given) | 5.9% | -7.4%
CCc1ccc(CN(Cc2ccco2)C(=O)c2ccccc2Cl)cc1 | -9.1% | 29.1%
COC(=O)c1ccc(COc2ccc(/C=C(/CC(=O)O)c3nc4ccccc4s3)cc2)cc1 | 21.5% | 24.2%
CCOC(=O)C1C(=O)OC2(CCOC(C)(C)C2)C1C#N (stereo not given) | 9.8% | 4.9%

Additional structures
SMILES | 2A firefly | 2A Renilla
COc1cc(Cl)c(NC(=O)CCS(=O)(=O)c2ccc3c(c2)NC(=O)CO3)c(OC)c1 | -3.2% | -5.4%
COc1cc(CN2CCc3nc(Nc4ccc5c(c4)OCCO5)ncc3C2)cc(OC)c1OC | 112.4%[activator] | ?
CCCOc1ccc(-c2nc(C#N)c(NCCc3ccc(OC)c(OC)c3)o2)cc1 | -1.9% | 10.8%
CC(C)NC(=O)C1CCN(C(=O)c2cc3sccc3n2Cc2ccc(Cl)cc2)CC1 | ? | ?
Cc1cccc(C)c1OCCn1c(CCNC(=O)C2CCCCC2)nc2ccccc21 | -26.0% | -4.2%
Cc1ccc(C(=O)N2CCN(c3cc(=O)n4nc(-c5ccccc5C)sc4n3)CC2)cc1 | 0.0% | -7.1%
Cc1ccsc1C=Nc1ccc(Nc2ccccc2)cc1 | 51.2%[activator] | 0.8%
O=C(CSc1ccccn1)c1ccc(Cl)cc1 | 192.2%[activator] | 39.6%[activator]
O=C(CCn1nnc2ccccc21)OCC(=O)c1ccc2c(c1)OCCO2 | 36.6%[activator] | 4.4%
CCOC(=O)C1CCC(CNC(=O)Nc2c(NC3CCCCC3)c3ccccc3oc2=O)CC1 (stereo not given) | -10.6% | 2.0%
O=C(NCC1(c2ccccc2)CC1)c1nn(-c2ccccc2)c(=O)c2ccccc12 | -8.2% | -1.1%
Cc1oc(-c2ccccc2)nc1CNS(=O)(=O)c1ccc(Cl)cc1 | 1.8%&-14.5% | 86.0%&0.0%[activator]
CCc1cc(Cl)c(OC)c(C(=O)NC[C@@H]2CCCN2CC)c1O | -5.9% | -10.9%
Cc1csc2nc(-c3cccc(NC(=O)c4ccc(S(N)(=O)=O)cc4)c3)cn12 | 76.3%[activator] | 50.3%[activator]
COc1ccc(OC)c(-c2noc(N3CCN(c4cc(Cl)ccc4C)CC3)n2)c1 | 12.2% | -2.9%
Cc1ccc(Cl)cc1N1CCN(C(=O)c2ccc(NC(=O)c3nsc4ccccc34)cc2)CC1 | 2.9% | -6.9%
CC(C)OC(=O)CC(NC(=O)c1cccc(CS(C)(=O)=O)c1)c1ccccc1 (stereo not given) | 5.9% | 11.2%
Cc1ccccc1NS(=O)(=O)c1ccc2[nH]cc(C(=O)NC3CCCCC3)c(=O)c2c1 | 0.0% | 3.9%
O=C(COC(=O)c1cccs1)c1ccc(OC(=O)c2ccco2)cc1 | 0.0% | 5.5%
FC(F)(F)c1ccc(Sc2ncccn2)nc1 | 49.3%[activator] | 0.2%
Cn1c(CC(=O)Nc2ccc(F)cc2)nnc1SCC(=O)c1ccc(C#N)cc1 | -1.6% | -4.8%
O=C(O)c1nn(CC(=O)N2CCCCC2)c(=O)c2ccccc12 | 1.4% | 1.1%
O=C(CC(c1cccs1)N1Cc2ccccc2C1=O)Nc1ccc(F)cc1F (stereo not given) | 2.6% | 106.9%[activator]
CCOC(=O)c1c(C)[nH]c(CCC(=O)NCCCN2CCN(c3ccc(F)cc3)CC2)c1C | -10.9% | -11.0%
O=C(NCc1ccc(OC(F)F)cc1)c1cc(Cl)ccc1-n1cnnn1 | 1.4% | -0.7%
COc1cccc(-c2nc3c(c(C)nn3-c3ccccc3)c3cc(OC)c(OC)cc23)c1 | -12.3% | -10.9%

Pulled one by one from the entries so far:
SMILES | 2A firefly | 2A Renilla
Cc1oc(-c2ccccc2)nc1CNS(=O)(=O)c1ccc(Cl)cc1 | 1.8%&-14.5% | 86.0%&0.0%[activator]
COc1cc(Cl)c(NC(=O)CCS(=O)(=O)c2ccc3c(c2)NC(=O)CO3)c(OC)c1 | -3.2% | -5.4%
Cc1cccc(C)c1OCCn1c(CCNC(=O)C2CCCCC2)nc2ccccc21 | -26.0% | -4.2%
O=C(CC(c1cccs1)N1Cc2ccccc2C1=O)Nc1ccc(F)cc1F (stereo not given) | 2.6% | 106.9%[activator]
O=C(NCC1(c2ccccc2)CC1)c1nn(-c2ccccc2)c(=O)c2ccccc12 | -8.2% | -1.1%
O=C(NCc1ccc(OC(F)F)cc1)c1cc(Cl)ccc1-n1cnnn1 | 1.4% | -0.7%

Single entries from the results shown:
O=C(O)c1nn(CC(=O)N2CCCCC2)c(=O)c2ccccc12 in 2A firefly shows 1.4%
Cn1c(CC(=O)Nc2ccc(F)cc2)nnc1SCC(=O)c1ccc(C#N)cc1 in 2A firefly shows -1.6%
Cc1csc2nc(-c3cccc(NC(=O)c4ccc(S(N)(=O)=O)cc4)c3)cn12 in 2A Renilla shows 50.3%[activator]
